Bioassay records: PubChem BioAssay, several laboratories
E coli growth: E. coli growth inhibition, primary screen, OD600 | Escherichia coli growth, 23 h; stronger effect = lower value | OD600 absorbance (concentration not given with the values) | 0.21% of 330,000 active;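 active = OD600 absorbance below the run mean of sample wells minus 3.6 SD, in any replicate, cut at about 0.56 in these data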;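 note: stock transfer was 300 nL into about 60 µL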
AF4-AF9 inh: inhibitors of AF4 peptide binding to AF9, primary screen, biochemical, AlphaScreen, biotin-AF4 peptide, FLAG-AF9, single point | 0.47% of 350,000 active | Protein AF-9 (Homo sapiens), P42568 | inhibition, % at 10 µM | AID 651704, 2012;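 active = every replicate reaching a set inhibition limit, whatever the replicate mean, cut at about 25% in these data; inconclusive = mean inhibition reaches that limit but some replicates miss it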;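 note: 0% = plate neutral control median and 100% = total signal loss; the record names both 10 and 1 µM as test concentration; the first replicate is given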
UCH37 inh: inhibitors of human UCH37 deubiquitinase, primary screen, biochemical, Ub-AMC cleavage, fluorescence; 0.33% of 330,000 active; Ubiquitin carboxyl-terminal hydrolase isozyme L5 (Homo sapiens), Q9Y5K5; AID 588478, 2011; inhibition, % (test concentration not listed); purified proteasome/UCH37;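 active = mean of two replicates above 20%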;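 note: 0% = compound-free wells with enzyme and 100% = wells lacking proteasome; stock transfer was 100 nL into about 20 µL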
Target sequence (Q9Y5K5 whole entry, looked up): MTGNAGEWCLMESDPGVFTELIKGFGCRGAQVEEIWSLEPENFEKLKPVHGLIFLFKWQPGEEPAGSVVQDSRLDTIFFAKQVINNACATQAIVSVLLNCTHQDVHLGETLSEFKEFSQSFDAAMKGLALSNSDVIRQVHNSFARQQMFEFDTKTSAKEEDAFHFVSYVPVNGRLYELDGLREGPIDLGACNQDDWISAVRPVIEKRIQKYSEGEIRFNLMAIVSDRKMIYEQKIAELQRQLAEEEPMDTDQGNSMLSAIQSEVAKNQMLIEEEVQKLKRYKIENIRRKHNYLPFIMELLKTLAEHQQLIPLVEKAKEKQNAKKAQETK
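system = Proteasome-associated human UCH37 deubiquitinase | amount = 0.15 nM proteasome as dispensed | medium = pH 7.4 Tris-HCl (50 mM) with ovalbumin, ATP-MgCl2, DTT | incubation = 30 min preincubation with enzyme, 25 min cleavage at room temperature | detection = AMC fluorescence 355/460 nm | read-out basis = percent inhibition | controls = no-proteasome and no-compound wells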
HNF4A DNA FP: change in binding of human HNF4A to DNA, primary screen, biochemical, fluorescence polarization, FITC-DNA | Hepatocyte nuclear factor 4-alpha (Homo sapiens), P41235 | activity change, % at 10 µM | 1 h | 0.3% of 360,000 active; in the data active = activity change above about 30%, passing the limit was not always enough;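 note: controls were the assay level and a saturating level of protein; the project sought stronger binding though the title names inhibitors; some compounds called inactive have numbers as strong as hits; positive values seem to mean higher polarization but the record does not say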
Target sequence (P41235 whole entry, looked up): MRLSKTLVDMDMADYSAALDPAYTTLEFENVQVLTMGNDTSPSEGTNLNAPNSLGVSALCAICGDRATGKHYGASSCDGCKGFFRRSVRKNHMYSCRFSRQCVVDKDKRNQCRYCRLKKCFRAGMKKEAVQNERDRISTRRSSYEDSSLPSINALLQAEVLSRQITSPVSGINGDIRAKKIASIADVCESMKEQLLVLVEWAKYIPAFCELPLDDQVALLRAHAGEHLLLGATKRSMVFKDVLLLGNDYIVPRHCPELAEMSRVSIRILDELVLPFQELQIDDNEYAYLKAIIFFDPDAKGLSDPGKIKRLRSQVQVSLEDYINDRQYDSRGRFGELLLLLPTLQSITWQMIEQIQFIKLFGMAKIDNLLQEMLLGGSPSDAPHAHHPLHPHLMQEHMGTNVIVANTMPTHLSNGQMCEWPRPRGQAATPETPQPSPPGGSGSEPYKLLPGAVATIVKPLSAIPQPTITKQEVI
FGF22 binding: binders of human FGF22 protein, primary screen, FGF22 synaptogenesis inhibitor project, biophysical, thermal shift, single point; Fibroblast growth factor 22 (Homo sapiens), Q9HCT0; recombinant FGF22 thermal shift, SYPRO orange fluorescence; percent of sucrose octasulfate shift, DMSO zero; calls only at 9.99 µM; 1.5% of 340,000 active;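 active = melting point raised past a set limit in the mean and every replicate; inconclusive = no clear call; three in four hits are not shown here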
Target sequence (Q9HCT0 whole entry, looked up): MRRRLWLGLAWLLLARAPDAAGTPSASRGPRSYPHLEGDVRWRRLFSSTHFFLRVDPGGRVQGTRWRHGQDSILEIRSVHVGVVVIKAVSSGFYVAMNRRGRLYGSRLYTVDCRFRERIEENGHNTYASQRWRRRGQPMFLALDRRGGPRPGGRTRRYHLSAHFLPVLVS
RanGTP-Impb inh: inhibitors of RanGTP-importin-beta interaction, primary screen, biochemical, FRET, CFP-Ran, YFP-importin-beta, homogeneous; Ran GTPase (GTP-bound) - importin-beta complex; cell-free CFP-Ran/YFP-importin-beta FRET ratio; inhibition, % (concentration not given with the values); 1.1% of 300,000 active; AID 2216, 2009;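 active = most replicates above 15%; inconclusive = exactly half above 15%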;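 note: 0% = DMSO wells and 100% = Ran loaded with GDP instead of GTP; wells of about 40 µL received 100 nL stock; the first replicate is given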
Vif A3G: inhibitors of Vif binding to APOBEC3G peptide, primary screen, biochemical, TR-FRET, GST-Vif 1-94, biotin-A3G peptide, dose response retest (AID 1117319) | TR-FRET GST-Vif / biotin-A3G peptide binding; higher % means a stronger effect; test concentration not given here; strong numbers were not always called active | one-dose inhibition, %; IC50 in µM for titrated hits | Virion infectivity factor (Human immunodeficiency virus type 1 group M subtype B (isolate … | 0.57% of 260,000 active;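 active = above the screen mean plus three standard deviations and confirmed in dose response; inconclusive = results disagree or hit not tested in dose response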;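 note: Vif residues 1-94 fused to GST binding biotinylated APOBEC3G peptide 110-148; 0% = full assay without inhibitor and 100% = GST in place of GST-Vif; retest series ran down from 100 µM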
Active calls of the source: *; i = inactive; u = inconclusive; x = no result given; & = joins results of further samples. These rows are one share of the data; rates above refer to the full screens.

molecule	E coli growth	AF4-AF9 inh	UCH37 inh	HNF4A DNA FP	FGF22 binding	RanGTP-Impb inh	Vif A3G
COc1cc2c(cc1OC)CN(C(=O)c1ccc(OC)c(S(=O)(=O)N3CCCC3)c1)CC2	0.697	-1.8	3.7	-0.5	i	x	-4.2%
Cc1ccc(C(=O)N/C(=C/C=C/c2ccccc2)C(=O)NCc2ccco2)cc1	x	x	2.4	-1.5	x	0.3	-4.1%
Cc1cc(Cl)ccc1Oc1nc(-c2ccccc2)ncc1S(C)(=O)=O	0.744	x	1.5	-1.8	x	-0.5	18.4%
CCOC(=O)c1cnc(SCC(=O)N2CCc3ccccc32)nc1N	0.7	x	0.7	1.5	x	-3.4	3.1%
COc1ccc(/C=C2\SC(=S)N(CC(=O)OCC(=O)Nc3ccc([N+](=O)[O-])cc3OC)C2=O)cc1	0.731	-2.7	0.1	-5.3	i	x	-2.1%
Cc1ccc(C(=O)O)cc1S(=O)(=O)N1CCOCC1	0.679	x	4.7	-1.4	x	6.3	31.4%
C=CCO/N=C(\C)c1c(O)c(C)c(-c2ccccc2)n(-c2ccccc2)c1=O	x	x	x	0.6	x	0.0	5.2%
Cc1cccc(-c2nn(-c3ccccc3)cc2C(=O)Nc2cccc(S(=O)(=O)NC3=NCCC3)c2)c1	0.698	0.5	-0.3	5.5	i	-4.6	-2.9%
Cc1cc(Cl)cc(Cl)c1OCCN1CCCC1	0.628	-0.1	2.6	-0.2	i	-1.0	x
Cc1ccc(/C=C/C(=O)Nc2ccc(S(=O)(=O)Nc3ncccn3)cc2)cc1	0.701	0.4	-4.0	-2.0	i	3.1	-0.6%
Cc1ccc(C(=O)N(CC(=O)NC2CCCC2)c2ccccc2F)s1	x	-1.6	x	2.2	i	x	-2.3%
Cc1ccc(Nc2ccc(C(=O)NCCc3ccccc3)cn2)cc1	0.673	-28.0	-6.7	0.5	i	3.3	x
O=C(O)c1ccccc1S(=O)(=O)CC(=O)N1CCCCC1	0.666	1.1	1.2	0.2	i	1.1	x
C[C@H]1CN([C@@H](C)CO)C(=O)CCCn2nncc2CO[C@@H]1CN(C)Cc1ccc2c(c1)OCO2	x	-1.1&-1.4	x	3.2	i	x	x
Cc1cc(=O)[nH]c(N/N=C/c2sccc2C)n1	x	-0.3	x	-0.8	i	-0.9	x
Cc1ccc([C@H]2N[C@]3(CCCN(Cc4ccc(C(F)(F)F)cc4)C3=O)[C@H]3C(=O)N(Cc4ccccc4)C(=O)[C@@H]23)cc1	x	0.4	x	0.4	i	x	x
O=C(N/N=C/c1ccc(N2CCOCC2)s1)c1ccccc1Cl	x	6.6	x	7.2	i	1.5	-1.7%
O=S(=O)(c1cccc(-c2nnc3n2CCCCC3)c1)N1CCOCC1	0.669	-35.7	-1.6	-0.9	i	-4.6	6.5%
Cc1nc2nc(C)c(CCC(=O)N3CCc4ccccc43)c(C)n2n1	0.705	x	1.6	2.8	x	10.1	4.0%
CCN(CC)CCN(C(=O)c1ccc(CN2CCCCC2)o1)C(C(=O)NC1CCCCC1)c1ccc(F)cc1 (stereo unspecified)	0.717	1.1	1.2	-7.1	i	u	-6.9%
Cc1ccc(C)c(Nc2c(F)c(F)c(F)c(F)c2C(=O)O)c1	0.695	-2.1	1.9	-1.4	x	1.0	3.1%
CCCN(CCC)CC(O)CN(c1cc([N+](=O)[O-])ccc1OC)S(=O)(=O)c1ccccc1 (stereo unspecified)	0.684	x	2.4	0.2	x	-0.8	15.2%
O=C1CCC(C(=O)N2CCCCCC2)CN1Cc1cccc(C(F)(F)F)c1 (stereo unspecified)	0.674	-1.0	-1.1	0.1	i	2.4	x
O=C1C=C(Nc2ccc(Cl)cc2Cl)CC(c2ccco2)C1 (stereo unspecified)	0.702	1.0	4.5	-0.6	i	24.3*	2.9%
O=C(CC1CCCC1)N1CCN(S(=O)(=O)c2ccccc2)CC1	x	-2.6	x	0.4	i	x	1.9%
Cc1snnc1C(=O)NC(=S)Nc1ccccc1	0.69	-7.6	4.5	1.9	i	5.0	x
O=C(NCC(c1ccco1)N1CCCCC1)c1ccc(NS(=O)(=O)c2ccc(F)cc2)cc1 (stereo unspecified)	0.666	1.6	-2.0	7.4	i	-2.0	-0.3%
COc1ccc(OCC(=O)NCCC2=CCCCC2)c([N+](=O)[O-])c1	0.632	-4.9	4.0	-1.6	i	-0.9	0.4%
COc1cc(NC(=O)c2ccccc2-c2ccccc2)cc(OC)c1OC	0.666	x	4.9	x	x	-3.3	0.8%
CC(C)CN(C(=O)COC(=O)CNC(=O)c1ccccc1F)c1c(N)n(Cc2ccccc2)c(=O)[nH]c1=O	x	-0.6	x	0.6	x	7.7	x
COc1cc2c(=O)n(Cc3ccccc3)c(=O)n(CC(=O)NCC3CCCO3)c2cc1OC (stereo unspecified)	0.636	x	-33.5	3.2	x	4.7	-9.7%&0.5%
Cc1nn(-c2ccccc2)c(C)c1/C=N/NC(=O)c1cc(-c2ccccc2)n[nH]1	x	x	x	4.6	x	-4.5	74.8%
C=CCN(CC=C)Cc1cc(=O)oc2ccc3ccccc3c12	x	3.2	x	-1.8	i	x	x
CCCCc1cc2c(c(NC(=O)CC)n1)c(=O)oc1ccccc12	0.646	-41.1	-34.3	1.6	i	-2.4	5.6%
N#Cc1c(/N=C/c2cccs2)sc2c1CCC2	x	x	x	0.6	x	u	u
CC(C)(C)OC(=O)N1CCC(C(=O)N[C@H](Cc2ccccc2)C(=O)O)CC1	x	x	0.3	-1.7	x	-5.4	-5.9%
CC(=O)OC1C(OC(C)=O)N(C(C)=O)C(=O)N1C(C)=O (stereo unspecified)	0.711	x	-2.2	-0.9	x	8.1	4.3%
O=C(NC1CCCC1)C1c2ccccc2OCC(=O)N1CC(F)(F)F (stereo unspecified)	x	0.2	x	2.0	i	x	x
CCOc1ccc(NC(=O)CC(Cc2ccc(Cl)cc2)C(=O)O)cc1 (stereo unspecified)	0.694	-1.3	2.1	-1.3	i	1.1	-7.3%
CCN1CCN(c2cc(C)c3cc(NC(=S)N4CCN(c5ccccc5F)CC4)ccc3n2)CC1	0.685	5.4	5.2	2.6	x	u	-0.3%
CC(=O)NC(C)c1nc2ccccc2n1Cc1ccccc1F (stereo unspecified)	0.724	x	3.9	-2.0	x	-3.7	-6.3%
CN(C(=O)c1cccc(NC(=O)Cc2ccc(NC(=O)C3CCCN(C(=O)C4CCCC4)C3)cc2)c1)C1CCCCC1 (stereo unspecified)	0.681	-1.6	3.5	0.3	i	x	-6.3%
COc1ccc(NC(=O)NCc2ccccn2)cc1	0.729	x	-0.8	-1.3	x	-4.3	21.8%
COC(=O)c1ccc(C)c(NC(=O)CN(c2ccc3c(c2)OCO3)S(C)(=O)=O)c1	0.731	x	2.4	1.2	x	0.2	16.6%
O=C1CSc2ccccc2N1Cc1ccc(F)cc1	0.689	2.8	4.6	-0.6	i	u	4.8%
COc1cccc(/C=C2\N=C(C3CCCCC3)OC2=O)c1OC	0.695	-1.3	-0.7	13.2	i	1.7	10.4%
CC1CCCC(C)N1C(=O)COC(=O)CCC(=O)c1ccc(F)cc1 (stereo unspecified)	0.635	-5.7	2.5	2.6	i	x	x
CC1(C)Oc2c(ccc(O)c2CN2CCOCC2)C2=C1CCCC2	x	12.3	x	2.9	i	x	-2.3%
COC(=O)C(O)(NC(=O)NC(C)=O)C(F)(F)F (stereo unspecified)	0.702	x	1.8	3.0	x	2.4	0.9%
CCc1ccccc1Nc1nc2ccccc2n1CC	0.712	0.4	4.1	-2.1	i	0.5	11.0%
CC1(C)Cc2c(c(=S)nc(-c3ccccc3)n2Cc2cccnc2)CO1	0.631	-1.4	13.3	-2.0	i	-2.3	1.5%
Cc1cccc(Cl)c1NC(=O)NCCCN1CCCCC1C (stereo unspecified)	x	0.1	x	1.7	i	x	x
CCOC(=O)C1(C)Oc2ccccc2C(c2ccc(OC)cc2)=C1C(=O)OC (stereo unspecified)	0.708	4.5	1.8	-1.1	i	x	1.5%
COc1ccc2c(c1)Cc1sc(NC(=O)c3ccccc3)nc1-2	0.713	x	-63.1	-3.4	x	-4.4	14.7%
COC(=O)Cn1c2ccc(C)cc2c2nc3ccccc3nc21	0.697	0.5	-27.8	3.2	i	19.8*	-8.4%
Cc1ccsc1C(=O)OCC(=O)NCc1cccs1	x	3.6	x	0.6	i	x	6.2%
COC(=O)[C@H](CC(C)C)NC(=O)Cn1cnc2c(OCc3ccccc3)ncnc21	0.685	-0.7	0.1	-0.3	i	x	3.7%
COc1cc(CN2CCNC(=O)C2CC(=O)NCCc2ncccc2C)cc(OC)c1 (stereo unspecified)	0.698	0.1	0.1	-2.4	i	-3.4	-5.7%
O=C(c1ccccc1OCc1ccccc1Br)N1CCN(c2ncccn2)CC1	0.715	x	-0.7	-3.3	x	-4.7	-3.7%
COc1ccc(-n2nc(C(=O)NCC(=O)NCCN(C)C)c3ccccc3c2=O)c(OC)c1	0.652	0.8	3.1	1.1	i	1.1	-9.1%

The results go on:
molecule	E coli growth	AF4-AF9 inh	UCH37 inh	HNF4A DNA FP	FGF22 binding	RanGTP-Impb inh	Vif A3G
COc1ccc2nc(C)cc(Nc3ccccc3O)c2c1	0.635	5.5	10.3	3.0	i	2.8	x
CC1(NC(=O)NCc2ccccc2)CCS(=O)(=O)C1 (stereo unspecified)	0.73	-2.4	3.7	1.2	i	5.4	x
Cc1cc(C)n2nc(SC(C)C(=O)N3CCCC3)nc2n1 (stereo unspecified)	0.657	3.9	0.4	-1.5	i	x	61.4%
O=C(COc1ccc(Br)cc1)Nc1ccncc1	0.654	x	2.6	-0.3	x	-1.2	4.0%
O=C1N(Cc2ccc(F)cc2)CCN1c1ccc(F)cc1	0.731	-3.0	4.2	-3.8	i	0.4	4.2%
CCN(CC)c1ccc(/C=C(/C#N)C(=O)NCc2ccccc2)o1	0.705	1.4	8.4	192.4	i	55.3*	x
Cc1ccc2nc(-c3ccco3)c(Cc3cccc(F)c3)n2c1	x	2.9	x	1.6	i	x	x
NC(=O)CC(NC(=O)Cc1ccc(Br)cc1)c1ccc(N2CCCCCCC2)c([N+](=O)[O-])c1 (stereo unspecified)	0.741	-1.0	6.1	-1.4	i	4.4	x
COc1cccc(N2C(=O)C(CC(=O)Nc3ccc(F)cc3)N(C3CCCCC3)C2=O)c1 (stereo unspecified)	0.694	x	2.2	2.6	x	0.0	-1.3%
CCOc1ccc2oc(C(=O)OCC(=O)NC3CCCC3)c(C)c2c1	0.675	-1.8	-23.2	1.1	i	x	-2.1%
COc1ccc(C(=O)Nc2ccc(-c3cn4ccsc4n3)cc2)cc1S(=O)(=O)N1CCOCC1	0.728	x	-8.1	2.2	x	-3.2	-12.7%
COc1ccccc1CCNC(=O)CSc1nc(-c2ccco2)cc(C(F)(F)F)n1	0.75	-4.5	-7.1	-0.2	i	-0.2	3.0%
COc1ccccc1C(=O)N/C(=C\c1cn(C)c2ccccc12)C(=O)N1CCOCC1	0.678	2.8	11.1	1.6	i	-2.2	x
